eIF4H inh: inhibitors of RNA binding by human eIF4H. inhibition, % at 35 µM. 290,000 tested, 0.94% active. eIF4H fluorescence polarization binding assay. AID 2012;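 active = 50% or more with normal probe brightness, or confirmed in later tests; inconclusive = above 50% with abnormal brightness, or retests that disagree; inactive = below 50% or failed in later tests; about a fifth of its hits are not listed in these tables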;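 also: calls also rest on retests at 20 µM and on dose response follow-up; 0% = protein and probe with vehicle and 100% = probe without protein; strong numbers were not always called active; many hits fall short of the cut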
Yeast UUG start: alters start codon recognition fidelity in yeast | 350,000 tested, 0.13% active | AID 602363 | S. cerevisiae UUG-firefly luciferase reporter, luminescence/redox ratio | activity score, % at 18.7 µM;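 active = replicate mean at a twofold rise or more, about +100% in these data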;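 also: firefly luciferase made from a UUG start codon reports start codon fidelity; reporter light over untreated wells divided by growth signal over untreated wells; some hits fall short of that in this replicate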
PABP FP inh: blocks human PABP binding to poly(A) RNA; inhibition, % at 35 µM; P11940; fluorescence polarization; 290,000 tested, 1% active; AID 2014;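 active = 50% or more with normal probe brightness, or confirmed in later tests; inconclusive = above 50% with abnormal brightness, or retests that disagree; inactive = below 50% or failed in later tests; about a fifth of its hits are not listed in these tables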;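 also: calls also rest on retests at 20 µM and on dose response follow-up; controls were probe without protein and protein plus probe with vehicle; some compounds called inactive have numbers as strong as hits; many hits fall short of the cut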
Env fusion inh: HIV envelope-mediated fusion inhibition; HeLa-JRFL Env/CEM21 cell fusion, luciferase; inhibition, % at 12.3 µM; 360,000 tested, 1.1% active;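 active = mean replicate inhibition score of at least 50 and every replicate individually at or above 50; inconclusive = only one of the two criteria met; inactive = mean below 50 and not all replicates reaching 50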;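 also: 0% = plate neutral controls and 100% = maraviroc near 300 nM; one replicate is shown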
Rce1 inhib: inhibitors of yeast Ras-converting enzyme; Q03530; yeast membranes, quenched prenylated peptide cleavage fluorescence; calls only; 290,000 tested, 0.27% active;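 active = fall in fluorescence gain of 50% or more versus controls, with final raw signal at or below 3038400; inconclusive = same 50% fall but final raw signal above 3038400; inactive = fall in fluorescence gain under 50%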;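 also: plate controls were neutral control wells for no effect and wells lacking membranes for full effect; tested at 10 µM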
Target sequence (Q03530 whole entry, looked up): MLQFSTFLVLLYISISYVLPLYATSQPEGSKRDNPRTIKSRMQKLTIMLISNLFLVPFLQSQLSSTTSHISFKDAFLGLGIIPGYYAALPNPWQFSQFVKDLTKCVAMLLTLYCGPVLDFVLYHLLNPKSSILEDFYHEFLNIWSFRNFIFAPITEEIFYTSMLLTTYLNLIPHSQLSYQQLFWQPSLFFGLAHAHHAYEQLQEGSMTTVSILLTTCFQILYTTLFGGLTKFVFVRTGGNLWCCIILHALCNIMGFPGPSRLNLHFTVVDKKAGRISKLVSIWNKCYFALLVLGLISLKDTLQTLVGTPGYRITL
MT1-MMP act inh: MT1-MMP (human) activation inhibition; P50281; HT1080 RFP-PRO-GFP cells, GFP/RFP ratio fluorescence, overnight; percent of plate control window, DMSO zero; GFP/RFP ratio change, % at 20 µM; 360,000 tested, 0.061% active; AID 651647;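 active = GFP/RFP ratio change of at least 30% with cell ATP level not reduced by more than half and red fluorescence within 50% of control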; also: strong numbers were not always called active
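system = RFP-PRO-GFP reporter HT1080 cells | dosing = 20 µM single dose, 1% DMSO | timing = overnight cell settling, then overnight compound exposure, 37 °C, 5% CO2 | read-out basis = GFP/RFP fluorescence ratio | controls = DMSO and RFP-L50D-GFP cell wells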
CSC inhib: blocks cancer stem cells; cancer stem cell-like cells viability, luminescence; inhibition, % at 7.5 µM; AID 2717; 300,000 tested, 1.1% active;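 active = mean at 75% or more and at least half the replicates too; inconclusive = mean and replicates disagree; tested in HMLE shEcad cells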;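 also: 0% = median of negative and 100% = median of positive control wells; the first replicate is given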
eIF4H inh retest: second read-out of eIF4H inh, no call of its own (marks repeat the call); inhibition, %; compound at 20 µM; confirmation average;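 mean of two retest wells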
PABP FP inh retest: also measured in PABP FP inh; calls as there; inhibition, %; compound at 20 µM; confirmation repeats;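 mean of two retest wells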
MT1-MMP act inh RFP: recorded beside MT1-MMP act inh, whose call it bears; RFP signal change, %; measured here: RFP expression control read;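 0 = vehicle wells; hits needed this value within 50% of zero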
An asterisk follows results filed as active; i = inactive; ? = inconclusive; · = not tested or not shown. An excerpt, so the mix of outcomes need not match the whole.

Preview:
SMILES	eIF4H inh	Yeast UUG start	PABP FP inh	Env fusion inh	Rce1 inhib	MT1-MMP act inh	MT1-MMP act inh RFP	CSC inhib	others
C=CCn1c(CNc2ccccc2)nnc1SCC(=O)N/N=C/c1ccc(O)cc1O	6	5	6	·	i	1	-2	86*
O=C(NCc1ccc2c(c1)OCO2)C1CC(=O)N(CCc2ccccc2)C1 (stereo not drawn)	-5	-4	2	-8	i	1	5	-7

The listing, from the first entry:
SMILES	eIF4H inh	Yeast UUG start	PABP FP inh	Env fusion inh	Rce1 inhib	MT1-MMP act inh	MT1-MMP act inh RFP	CSC inhib	others
C=CCn1c(CNc2ccccc2)nnc1SCC(=O)N/N=C/c1ccc(O)cc1O	6	5	6	·	i	1	-2	86*
O=C(NCc1ccc2c(c1)OCO2)C1CC(=O)N(CCc2ccccc2)C1 (stereo not drawn)	-5	-4	2	-8	i	1	5	-7
CC1(C)CC2(C)Nc3ccccc3N2C(=S)N1 (stereo not drawn)	3	-21	-3	4	i	-7	-4	2
O=C(OCC(=O)c1cccs1)c1ccc(NC(=O)c2ccco2)cc1	13	-21	1	2	·	2	4	-5
COc1ccc(OC)c(NC(=O)CS(=O)(=O)c2ccccc2)c1	-4	2	-4	-46	i	2	4	-3
CN(C)c1ccc(N2C(=NC(=O)CCc3ccccc3)SC3CS(=O)(=O)CC32)cc1 (stereo not drawn)	2	-7	6	-1	i	0	0	6
CCN(CC)c1ccc(N2C(=NC(=O)C3CCCO3)SC3CS(=O)(=O)CC32)cc1 (stereo not drawn)	0	·	-5	0	i	0	0	-19
O=C(CCN1C(=O)c2ccccc2C1=O)Nc1cccnc1	0	-2	-4	18	i	4	4	5
CCOC(=O)c1c(NC(=O)C2Cc3ccccc3C(=O)O2)sc2c1CCCC2 (stereo not drawn)	·	-13	·	5	·	-7	-2	-10
CCOC(=O)/C=C1/SCC(=O)N1CC(=O)NC12CC3CC(CC(C3)C1)C2	·	-11	·	57*	·	0	-1	·
CCN/N=C(\Cc1nc2ccccc2[nH]1)c1ccccc1	-5	·	-8	-9	i	-6	-4	·
C=C(C)C1CC=C(C)/C(=N/NC(=O)c2cccs2)C1 (stereo not drawn)	-3	-18	0	-35	i	-2	-2	-2
COC(=O)\C(C(C)=O)=C(/C=C/C=C/C=C/N(C)C)N(C)C	90*	·	66*	·	i	-7	-2	-1	eIF4H inh retest=92*;PABP FP inh retest=91*
Cc1noc(C)c1COC(=O)c1csc2c1CCCC2	·	-11	·	8	·	10	5	·
CS(=O)(=O)n1nc(-c2ccc(Cl)cc2)nc1SCc1ccccc1	-13	·	7	-46	i	-2	-2	·
Cc1sc2nc(SCc3nc(-c4ccccc4)no3)n(-c3ccccc3)c(=O)c2c1C	-6	-4	-7	·	i	0	-1	·
O=C(NCCN1CCOCC1)C1CCCN(S(=O)(=O)c2ccc(F)cc2)C1 (stereo not drawn)	11	-17	-4	-1	i	-6	1	-16
CN(C(=O)Nc1ccccc1)n1cnc2ccccc2c1=O	-7	-16	-5	-6	i	1	4	-10
Cc1ccc(/C=C2\SC(=S)N(c3c(C)n(C)n(-c4ccccc4)c3=O)C2=O)cc1	3	-15	-2	·	i	3	-4	-4
Cc1ccc(C)c(S(=O)(=O)N2CCN(C(=O)C(C)Sc3ccccc3)CC2)c1 (stereo not drawn)	-11	-22	-18	·	i	-5	-5	7
Cn1c(=O)c2[nH]c(SCC(=O)c3ccc(F)cc3)nc2n(C)c1=O	3	·	1	-1	i	-1	3	-12
Cc1cnc(C(=O)Nc2ccc(C)c(S(=O)(=O)N3CCCCC3)c2)cn1	·	-3	·	-2	·	2	-2	·
COc1ccc(O)c(CN2CCC(n3nccc3NC(=O)c3ccccc3Cl)CC2)c1	2	9	3	·	i	-2	1	·
COc1ccc2c(OC)c3ccoc3nc2c1OC	-9	-9	4	·	i	-1	5	-6
CN(Cc1ccccc1)C(=O)c1cccc(NC(=O)Cc2ccc(NC(=O)C3CCN(C(=O)C4CCCCC4)CC3)cc2)c1	·	-3	·	-2	·	0	-9	·
CC(=O)c1c(OCC(=O)O)ccc2c(C)cc(=O)oc12	3	-9	2	-50	i	4	2	·
S=C(NCCc1ccccn1)Nc1cccc(Cl)c1	3	·	-7	2	i	5	3	-21
CCOC(=O)c1c(C)[nH]c(C(=O)OCc2ccccc2)c1C	-13	4	-2	-256	i	0	-1	16
Cc1ccc(NC(=O)c2ccc3c(c2)CCN3S(C)(=O)=O)c(C)c1	-8	-11	-6	4	·	2	4	-13
O=C(CCCOc1ccc(Cl)cc1Cl)Nc1ccc(O)cc1C(=O)O	-2	-3	6	-9	i	-4	-9	-1
COc1cccc(Cn2c(=O)c3[nH]cnc3n(-c3ccccc3C)c2=O)c1	-4	18	6	-38	i	-1	5	-3
C=CCN1C(=O)/C(=C\c2cc(Br)c(OCc3ccccn3)c(OC)c2)SC1=S	4	·	-9	12	i	-5	-4	15
CCCC(=O)N(CCN1CCOCC1)c1nc2c(OCC)cccc2s1	-6	-17	-2	·	i	1	1	-17
COc1ccc(/C=N/NC(=O)CSCc2ccc([N+](=O)[O-])cc2)cc1OC	-5	-7	8	-28	i	4	4	-8
CSc1ccccc1NC(=O)CN(C)CC(=O)c1c(C)[nH]c2ccccc12	·	-4	·	-2	·	-5	-4	-5
COc1ccc(Nc2nc(N)nc(CN3CCc4ccccc4C3)n2)cc1	-11	-20	-8	2	i	4	8	29
Cc1ccccc1C(=O)O/N=C1\CCS(=O)(=O)c2sccc21	-8	-18	-6	·	i	0	1	-10
C=CCN(CC=C)S(=O)(=O)c1ccc(NC(=S)NC(=O)Cc2ccc(OC)cc2)cc1	-4	-11	1	-22	i	0	-5	1
CC(=O)N1CCc2cc(S(=O)(=O)CCC(=O)N(C)c3cc(C)ccc3C)ccc21	8	11	15	4	i	0	1	-6
Cc1nnc(SCC(=O)Nc2ncc(Cc3ccc(F)cc3)s2)n1N	-10	-29	-3	·	i	8	-3	-8
CC(C)c1ccc2c(c1)C(N1CCNCC1)Cc1ccc(F)cc1S2 (stereo not drawn)	·	·	·	18	i	·	·	102*
Cc1ccc(/C=C2/SC(=O)NC2=S)o1	?	-6	-8	·	·	-20	12	·
CN(C)S(=O)(=O)c1ccc2nnn(OCC(=O)NC34CC5CC(CC(C5)C3)C4)c2c1	3	1	10	35	i	2	-8	-15
CCOC(=O)c1c(C)oc2cc(Br)c(OC)cc12	2	-18	2	i	i	5	-1	-1
CC12CCC(=O)N1C(C(=O)Nc1nc(-c3ccccc3Cl)cs1)CS2 (stereo not drawn)	·	-13	·	17	i	-6	-7	35
C/C(CCN1CCc2nc(-c3ccccc3)c(-c3ccccc3)cc2C1)=N\O[C@@H](C)c1cc(-c2c(C)cc(C)cc2C)no1	-2	·	61	·	i	1	-1	78*	eIF4H inh retest=-6;PABP FP inh retest=2
Cc1nc(C2CCC3C4CCC5=CC(=O)CC[C@]5(C)C4CC[C@]23C)cs1 (stereo partly drawn)	-7	·	7	?	i	·	·	86*
O=C(NCC1CCCO1)C1CCN(C2CCN(C3CCCCCC3)CC2)CC1 (stereo not drawn)	6	·	12	-17	i	0	2	-4
CC(=O)c1c(N2CCOCC2)nc(=O)n(-c2ccccc2)c1C	2	3	-3	·	i	5	7	13
COc1ccc(C(CNC(=O)c2oc3c(Cl)cccc3c2C)N2CCCC2)cc1 (stereo not drawn)	·	-25	·	-118	i	6	-4	-2
O=C(O)CNC(=O)CC1S/C(=N/N=C2\CSC(=O)N2)NC1=O (stereo not drawn)	14	·	8	14	i	5	6	-9
COc1ccc(N(CC(=O)NCc2ccncc2)S(=O)(=O)c2ccccc2[N+](=O)[O-])c(OC)c1	-6	·	7	3	i	-4	-2	4
COc1cc(/C=C(/NC(=O)c2ccccc2)C(=O)Nc2cccc(O)c2)c([N+](=O)[O-])cc1OC	-1	-8	-1	·	i	2	2	-10
O=C(CSc1nnc(CNC(=O)c2ccc(F)cc2)o1)NCc1ccc2c(c1)OCO2	0	-7	-6	-9	i	-4	0	6
O=C(COC(=O)c1cc(Cl)nc(Cl)c1)NC1CCCCCC1	·	-12	·	·	·	-6	-1	-11
COc1ccc(/C=C2/SC(=S)N(CCCC(=O)Nc3ccc(O)cc3)C2=O)cc1	-11	-11	7	21	i	1	-5	32
Cc1cc(C)c2ccc(=S)[nH]c2n1	8	-13	-5	-4	i	11	10	-3
CC(=O)N1c2ccc(S(=O)(=O)NCCC(=O)NCc3ccc(N(C)C)cc3)cc2CC1C (stereo not drawn)	-2	-18	-1	-21	i	0	-1	-15
O=C(NN1C(=O)C2C3C=CC(O3)C2C1=O)c1ccccc1 (stereo not drawn)	4	·	3	-49	i	2	6	-3
COc1ccc(CN2CCc3ccccc3C2)c(OC)c1OC	-2	28	13	17	i	-7	1	13

Following part
SMILES	eIF4H inh	Yeast UUG start	PABP FP inh	Env fusion inh	Rce1 inhib	MT1-MMP act inh	MT1-MMP act inh RFP	CSC inhib	others
COc1ccc(CN2CCC(C(=O)NC(c3ccc4c(c3)OCO4)c3ccccn3)CC2)cc1 (stereo not drawn)	·	-8	·	5	·	1	5	·
COc1cccc(NC(=S)N(Cc2cccc(Br)c2)CC2CCC(C(=O)O)CC2)c1 (stereo not drawn)	-14	-27	-13	2	i	-3	-3	14
O=C(CN1CCN(C(=O)c2ccc(OCc3cn4ccccc4n3)cc2)CC1)Nc1cccc(F)c1	·	-19	·	34	·	0	-21	5
CSCCC(N=CC1=C(O)CC(C)(C)CC1=O)C(=O)O (stereo not drawn)	-1	-15	0	·	i	-2	-1	0
C=CCn1c(SCC(=O)N(CCOC)c2c(N)n(CCCC)c(=O)[nH]c2=O)nnc1-c1ccc(Cl)cc1	·	-14	·	1	i	1	-1	-5
NC(=O)CC(NC(=O)c1ccc(Br)cc1)c1ccc(N2CCN(c3ccc(F)cc3)CC2)c([N+](=O)[O-])c1 (stereo not drawn)	2	-13	0	26	i	2	-8	35
COc1cccc2c(Cl)c(CCCl)c(C)nc12	-3	-19	3	-13	i	-5	-8	26
c1ccc(NC2=Nc3cccc4cccc2c34)cc1	1	4	16	-9	i	-11	-3	9
CCC(=O)c1ccc(OCc2ccc(C(=O)c3ccccc3)cc2)cc1	-6	·	-8	19	i	-12	-28	10
COc1ccc(N2C(=O)c3ccc(NC(C)=O)cc3C2=O)cc1	-8	-14	7	-49	i	-1	1	·
C/C(=N\NC(=O)c1ccn(C)n1)c1ccc(NC(=O)C2CCCC2)cc1	6	-12	9	1	i	3	5	14
CCCC(=O)Nc1ccc2c(c1)nc(CN1CCN(C(C)=O)CC1)n2C	7	-5	2	·	i	5	2	-3
Nc1ncnc2c1ncn2[C@@H]1O[C@H](CNC(=O)[C@@H](N)Cc2ccccc2)[C@@H](O)[C@H]1O	·	1	·	-5	·	6	6	·
Cc1ccc(-n2c(-c3ccccc3)n[nH]c2=S)c(C)c1	-4	-31	0	25	i	-3	-2	·
CC(=O)c1ccc(NC(=O)C2CCCN2S(=O)(=O)c2ccc(F)cc2)cc1 (stereo not drawn)	-4	-2	-9	2	i	5	7	-32
COc1ccc(-n2nc3cc(C)c(NC(=O)c4cccnc4)cc3n2)cc1	4	-10	-10	·	i	1	-3	-4
COc1ccc(CNc2nc(-c3cccnc3)nn2C(=O)C(C)C)cc1	1	·	-11	-16	i	3	2	·
COc1ccc(-n2c(Cc3cc(=O)[nH]c(=O)[nH]3)nnc2SCC(=O)N2CCC(C)CC2)cc1	1	7	10	-2	·	-4	3	-10
CCc1cnc(Nc2nc(C(N)Cc3ccc(Cl)cc3)cs2)nc1 (stereo not drawn)	·	-19	·	-58	·	0	1	·

Bioassay records from PubChem BioAssay.
